2A StopGo: High Throughput Screening for Foot and Mouth Disease Virus Antivirals; human cells with a luciferase reporter of 2A StopGo recoding; control for the full effect not named in the record; Potency, µM (titrated, usually from 57.9 µM), for the others: at the top dose signal change, negative = less light; 410,000 tested, 1.2% active; active = well fitted falling curve with a large enough effect; inconclusive = small, poorly fitted or top-dose-only effect; inactive = no such curve, though single readings can be large or run the other way; tested in HEK293T cells; note: nearly all actives have a fitted effect of over 45% in size; luciferase light after 4 h
RE007 growth inh: qHTS Assay for Inhibitors of the HIV-1 protein Vpr. 360,000 tested, 0.21% active. Potency, µM (highest dose often 92.2 µM), inactives show at the highest dose activity change, negative = less growth. AID 651644, 2012. S. pombe RE007 Vpr strain, BacTiter-Glo ATP luminescence, 24 h; control for the full effect not named in the record; active = well fitted falling curve with a large enough effect; inconclusive = small, poorly fitted or top-dose-only effect; inactive = no such curve, though single readings can be large or run the other way;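 note: nearly all actives have a fitted effect of over 50% in size; the assay follows cell death caused by Vpr and the record does not say whether a fall means rescue or toxicity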
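Fission yeast RE007 carrying one integrated HIV-1 vpr copy, seeded at OD 0.01 in PMG+AL medium with 23 nL pinned compound. Grown 24 h at 30 degrees; viability read by BacTiter-Glo luminescence after 5 min.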
* hit, by the source's call; ? = inconclusive; [ ] = another dose, or the depositor's remark. % is set by controls: 0 for no effect and ±100 for the full control effect; potency is the fitted concentration of half-maximal effect. Some of the compounds tested; count on the stated rates, not on these rows.

compound | 2A StopGo | RE007 growth inh
CCOC(=O)C[C@H]1c2cc(C(F)(F)F)ccc2S(=O)(=O)N1C(C)C | 1.9% | 2.2%
Clc1cc(Cl)cc(Nc2ccccc2CN(C/C=C/c2ccc3c(c2)OCO3)Cc2ccccc2)c1 | -18.6% | -1.2%
COC1OC2COC(c3ccccc3)OC2C(NC(C)=O)C1OC(C)=O (stereo not drawn) | 0.0% | 3.2%
Cc1cc(C)nc(NS(=O)(=O)c2ccc(NS(=O)(=O)c3ccc(F)c(F)c3)cc2)n1 | 71.6%[activator] | 23.0%
O=C(Nc1ccccn1)C(c1ccccc1)c1ccccc1 | 0.0% | -2.2%
Cc1cc(Br)cn2c(Cc3cccc(F)c3)c(C3CCCCC3)nc12 | -18.6% | ?
O=C(CCNS(=O)(=O)c1ccc(OC(F)(F)F)cc1)Nc1cccc(S(=O)(=O)N2CCCC2)c1 | -4.7% | -6.2%
O=C(NCc1ccccc1)C1C(c2ccc3c(c2)OCO3)=Nc2ccccc2N1C(=O)c1ccco1 (stereo not drawn) | 40.3%[activator] | 6.6%
COc1ccc(OC)c(NC(=O)c2cc(-c3ccc(F)cc3OC(C)C)n[nH]2)c1 | -29.5% | 4.0%
CCOc1ccc(S(=O)(=O)NCCC(=O)NNC(=O)c2ccc(F)cc2)cc1 | 0.0% | 2.9%
O=C(C1CC1)N1CCN(c2ccc([N+](=O)[O-])cc2)CC1 | -9.9% | -15.2%
CC1(Cc2ccc3c(c2)OCO3)C(=O)Nc2c(Cl)ccc(Cl)c21 (stereo not drawn) | 0.0% | -11.4%
COC(=O)c1ccc2nc(-c3ccc(C#N)cc3)c(Cc3cccc(Cl)c3)n2c1 | -28.1% | -13.5%
O=C1OCCC1C(=O)c1ccccc1 (stereo not drawn) | -7.9% | -10.3%
CCOC(=O)C1(C)CCN1C(=O)c1cc(-c2ccc(Cl)cc2)oc1C (stereo not drawn) | 2.1% | -18.8%
O=C(Nc1cccc(NC(=O)c2cc([N+](=O)[O-])ccc2Cl)n1)c1cc([N+](=O)[O-])ccc1Cl | 12.6µM* | -18.7%
CCOc1ccc(NC(=O)CN(C)C2=NS(=O)(=O)c3ccccc32)cc1 | -21.3% | 2.8%
COc1ccc(Cc2n[nH]c(=S)n2-c2cc(C)ccc2C)cc1OC | ? | 3.1%
CCOc1ccc(NC(=O)CN2C(=O)NC(C)(c3ccc4c(c3)OCCCO4)C2=O)cc1OCC (stereo not drawn) | -20.2% | 4.0%
Cc1ccc(S(=O)(=O)N(C)c2ccc(OCC(=O)OCc3nnc(-c4ccccc4)o3)cc2)cc1 | 9.3% | 5.4%
O=CNc1cc(-c2ccc(C(=O)NC3CC3)cc2)cn2c(-c3ccc(F)cc3)cnc12 | ? | -2.1%
O=C(NCc1ccccc1)C(c1ccc(C(F)(F)F)cc1)N1CCN(CCN2CCOCC2)CC1 (stereo not drawn) | -12.7% | -9.4%
C=C1C(=O)OC2C1CCC(C)=C1C(=O)C3OC3(C)C12 (stereo not drawn) | 28.2µM* | ?
Cc1nc(C(F)(F)F)ccc1C(=O)N1CCC(C)(C(=O)NS(=O)(=O)C2CC2)C1 (stereo not drawn) | -6.0% | 9.4%
COCCNc1nc2cc(-c3cccc(C(F)(F)F)c3)sc2c(=O)n1C | -19.8% | -8.1%

compound | 2A StopGo | RE007 growth inh
O=C(OCc1cn([C@H]2C[C@H](c3ccccc3)N(CC3CCCCC3)C[C@@H]2O)nn1)c1ccccc1 | -1.3% | -26.6%
CCCNC(=O)C1(C)CCN(C(=O)c2cc(C)n(C(C)(C)C)n2)C1 (stereo not drawn) | -3.4% | -16.7%
O=C(NCCN1CCC(n2c(=O)[nH]c3ccccc32)CC1)c1cccs1 | -12.6% | 19.5%
CCCCC1Cc2[nH]c(=S)[nH]c(=O)c2C(c2ccc(F)cc2)O1 (stereo not drawn) | ? | 15.7%
O=C(NCCCN1CCOCC1)c1onc(CSc2ccc(F)c(F)c2)c1C(=O)NCCCN1CCOCC1 | -6.6% | -8.3%
CCCC(=O)N1CCCC1(C)C(=O)N(C)Cc1cccc2ccccc12 (stereo not drawn) | 3.1% | 18.8%
Cn1c2c(c(=O)n(C)c1=O)CN(Cc1ccccc1)CN2 | -6.8% | 0.9%
O=C(Nc1ccc2nc([C@@H]3O[C@H](CO)[C@@H](O)[C@H](O)[C@H]3O)[nH]c2c1)NC(c1ccccc1)c1ccccc1 | -6.9% | 0.2%[18.4 µM]
CC(=O)NC(C)(c1ccccc1)c1nc(-c2ccc(N(C)C)cc2)cs1 (stereo not drawn) | -23.0% | 17.5%
CCCNC(=O)C1(C)CCN(Cc2noc(-c3ccccc3OC)n2)C1 (stereo not drawn) | -15.8% | -5.9%
O=C(Nc1ccccc1)c1cc(C2CCCCN2C(=O)c2cccs2)on1 (stereo not drawn) | -2.6% | 3.4%[18.4 µM]
Cc1cc(C)nc(NC(=O)c2c(F)c(F)c(F)c(C(=O)Nc3cc(C)cc(C)n3)c2F)c1 | 25.1µM* | -7.8%
FC(F)(F)c1ccc(-c2cccc3c2C2CC3CCN2)cc1 (stereo not drawn) | -20.3% | 0.2%
CC(=O)Nc1ccc(NC(=O)c2ccc(-c3c(C)noc3C)c3ccoc23)cc1 | 4.2% | -0.2%[18.4 µM]
CC(C)N1CCC1(C)C(=O)Nc1nccc2cccnc12 (stereo not drawn) | -10.4% | 14.3%[18.4 µM]
CC1(C(=O)NC2CCCCCC2)CCN1C(=O)Cc1ccc(-c2ccccc2)cc1 (stereo not drawn) | ? | 18.8%
CN1CCN(c2ncnc3c2ncn3[C@H]2CN(Cc3ccco3)C[C@@H](CO)O2)CC1 | -19.5% | 3.6%
NC(Cc1ccc(Cl)cc1)c1csc(NC(=O)NCCc2ccccc2)n1 (stereo not drawn) | -15.4% | 14.5%
CCCCN1C(=O)C(CC(=O)NCC2CCCCC2)CC(C(=O)N(CC)CC)=C1C (stereo not drawn) | -1.9% | -3.4%
COC(=O)C1(C(=O)OC)C2CCCCC2N(S(=O)(=O)c2ccc(C)cc2)[C@@H]1CC(C)=O (stereo partly drawn) | 0.0% | -1.6%
CS(=O)(=O)Nc1ccc2c(c1)[C@H]1C[C@H](CC(=O)NCc3cccc(F)c3)O[C@@H](CO)[C@H]1O2 | -4.2% | 0.1%
CC(Oc1ccccc1)C(=O)N1CCC2(CC1)Oc1ccc(F)cc1C(=O)C21CC(c2ccc(Cl)cc2)=NO1 (stereo not drawn) | -16.1% | -1.4%
CC(=O)c1ccc2c(c1)N(Cc1ccccc1Cl)C(=O)C(C)S2 (stereo not drawn) | -1.1% | 17.5%
O=C(Nc1ccc(F)c(Cl)c1)c1csc(COCCO)n1 | 11.1% | -8.5%
OC[C@@H]1CN(Cc2ccco2)C[C@H](n2cnc3c(Nc4ccccc4)ncnc32)O1 | 1.9% | 15.2%

Reformatted with each value named: two of the compounds above.
Cc1cc(C)nc(NS(=O)(=O)c2ccc(NS(=O)(=O)c3ccc(F)c(F)c3)cc2)n1
  2A StopGo: 71.6%[activator]
  RE007 growth inh: 23.0%
O=C(Nc1ccccn1)C(c1ccccc1)c1ccccc1
  2A StopGo: 0.0%
  RE007 growth inh: -2.2%

Later entries.
compound | 2A StopGo | RE007 growth inh
CCCC#Cc1ccc2c(c1)O[C@@H](CN(C)Cc1ccc3c(c1)OCO3)[C@H](C)CN([C@@H](C)CO)S2(=O)=O | -22.2% | 8.6%
CC1=C(C(=O)N(C(C)C)C(C)C)CC(CC(=O)NC2CC2)C(=O)N1Cc1ccc(F)cc1 (stereo not drawn) | -14.1% | 0.4%
C[C@@H]1CN([C@@H](C)CO)S(=O)(=O)c2ccc(Br)cc2O[C@H]1CN(C)C(=O)c1ccccc1F | -0.9% | 8.6%
CN1CCN(c2ccc(CNC(=O)C3Cc4c(-c5ccccc5)ccnc4O3)cc2)CC1 (stereo not drawn) | -11.7% | -6.8%
CCc1ccccc1N=Cc1c(C)c(C#N)c2[nH]c3ccccc3n2c1=O | -11.7% | -4.8%
O=C(NCCc1cccs1)c1ccc(CS(=O)Cc2cccc(Cl)c2)o1 (stereo not drawn) | 23.5% | -13.1%
C[C@@H]1CN([C@H](C)CO)C(=O)CCCn2cc(nn2)CO[C@H]1CN(C)S(C)(=O)=O | ? | 15.1%
COC(=O)C1=C(c2ccc(S(C)(=O)=O)cc2)C[C@@H]2CC[C@H]1N2C(=O)NCC1CC1 | -15.3% | 3.1%
Cc1noc(C)c1C(=O)N1CCC1(C)C(=O)NS(=O)(=O)c1cccs1 (stereo not drawn) | -13.1% | 5.1%
CC(=O)C1=CCC(c2ccc(Cl)cc2)N(S(=O)(=O)c2ccccc2C)C1 (stereo not drawn) | -14.9% | 10.8%
CC1(C(=O)Nc2ccc(Cl)c(Cl)c2)CCN1C(=O)Cc1cccc2ccccc12 (stereo not drawn) | -27.1% | 0.8%
CCCS(=O)(=O)NC(=O)C1(C)CCCN(C(=O)c2cc(OC)c(OC)c(OC)c2)C1 (stereo not drawn) | -1.3% | -1.4%
CC(=O)NC(c1cccc(F)c1)c1nc(-c2ccccc2)cs1 (stereo not drawn) | -10.7% | 5.8%[18.4 µM]
Fc1ccc(-c2nc3c(Cl)cc(C(F)(F)F)cn3c2Cc2cccc(Cl)c2)cc1 | -8.5% | 38.4%
COc1ccc(CCC2=NCCN2C(CC(C)C)c2nc3ccccc3[nH]2)cc1 (stereo not drawn) | -13.8% | -28.9%
COc1ccc(N2c3ccccc3CN(Cc3ccccc3)CC2Cc2cc(OC)c(OC)c(OC)c2)cc1 (stereo not drawn) | ? | -0.1%
Cc1ccc(C(=O)N2c3ccccc3Sc3ccccc32)cc1 | -14.0% | 6.8%[18.4 µM]
COc1ccc(-n2nnnc2C(c2cccc3ccccc23)N2CCC(n3c(=O)[nH]c4ccccc43)CC2)cc1 (stereo not drawn) | -26.6% | 14.8%
COc1ccc(NC(=O)Nc2nnc([C@H]3C[C@H](O)[C@@H](CO)O3)s2)cc1 | -5.9% | 5.3%[18.4 µM]
CC(C)(C)S(=O)N1Cc2cc(C(=O)NCc3ccc4c(c3)OCO4)nc(-c3cccc(-c4cc5ccccc5o4)c3)c2[C@@H]1CCO (stereo partly drawn) | -15.1% | 4.8%
CCOC(=O)C1(C)CCN1C(=O)c1cccc(C#N)c1 (stereo not drawn) | -19.9% | 4.1%
CC1(C)C2CC[C@]3(C)C(CC=C4[C@@H]5C[C@@](C)(CO)[C@@H](O)C[C@]5(C(=O)O)CC[C@]43C)[C@@]2(C)CC[C@@H]1O (stereo partly drawn) | -9.8% | 1.6%
CCCCCC(=O)N1C[C@H](O)[C@@H](n2cc(C3CC3)nn2)C[C@@H]1c1ccc(Cl)cc1 | -18.3% | -6.9%
COc1ccc(S(=O)(=O)Nc2ccc3c(c2)C(=O)N([C@@H](C)CO)C[C@@H](C)[C@H](CN(C)S(=O)(=O)c2ccc(F)cc2)OCCCC[C@H](C)O3)cc1 | -3.3% | -23.5%
O=C(NNC(=O)c1cc(S(=O)(=O)N2CCOCC2)ccc1Cl)c1ccc(F)cc1 | -18.3% | -4.6%

compound | 2A StopGo | RE007 growth inh
COc1ccc(NC(=O)C2CC2(Cl)Cl)cc1S(=O)(=O)N1CCCCC1 (stereo not drawn) | 14.4% | -5.7%
CC(=O)c1ccc(OC2(C)CCN(Cc3ccccc3OC(F)F)C2)cc1 (stereo not drawn) | -21.6% | -9.6%
CC(C)CCC(=O)Nc1cc(S(=O)(=O)N2CCOCC2)ccc1N1CCCC1 | -1.7% | 8.8%
COc1ccc(Cc2c(C3CCCCC3)nc3ccc(Cl)cn23)c(C)c1 | -12.4% | 11.2%
COc1cc(C(=O)Nc2cc(S(=O)(=O)N3CCOCC3)ccc2N2CCOCC2)ccc1OC(F)F | -5.1% | -10.4%
COCCNC(=O)C[C@H]1C[C@H]2c3cc(NS(=O)(=O)c4ccc(F)cc4)ccc3O[C@H]2[C@H](CO)O1 | -15.5% | 9.7%
COC(=O)[C@H]1C[C@H](OC(=O)NC2CC2)[C@@]2(O)CN(S(=O)(=O)c3ccc(C)cc3)CC2[C@H]1C(=O)OC (stereo partly drawn) | 0.0% | 1.6%
CCc1nc2ccc(C(=O)NCc3ccc(OC)cc3)cn2c1N(CCC(C)C)CCN(C)C | -8.3% | 0.2%
CC1(C(=O)NS(=O)(=O)c2cccc(F)c2)CCN1C(=O)C/C=C/c1ccccc1 (stereo not drawn) | 1.1% | 2.4%
Cn1cnc2nc[nH]c2c1=O | 2.7% | -0.5%
Cc1ccc(Cn2c(C3CCCN3c3nc(-c4cc(Cl)c(N)c(Cl)c4)cs3)nc3cc(Cl)c(Cl)cc32)cc1 (stereo not drawn) | 36.9%[activator] | 10.0%
Cc1ccc2nc3n(c(=O)c2c1)-c1ncccc1C(=O)NC3Cc1ccccc1 (stereo not drawn) | -17.4% | -11.4%
CCOc1ccc(OCCC(=O)OCC(=O)Nc2cc(S(=O)(=O)N3CCOCC3)ccc2OC)cc1 | -6.7% | 7.7%
COCCN1C(=O)c2ccccc2C1c1nnnn1Cc1ccccc1 (stereo not drawn) | -14.2% | -0.6%
O=C(c1cc2ccccc2[nH]1)N1O[C@@H]2C=C[C@H]1C2 | 33.7%[activator] | -4.8%
C[C@H](O)[C@@H]1C(=O)N2CCc3ccc(-c4cccc(F)c4)cc3[C@@H]2C[C@@H]1N(C)C(=O)C(C)(C)C | -15.1% | 7.9%

High-throughput results: PubChem, National Center for Advancing Translational Sciences (NCATS)
